# Vaccinia Venus = inhibitors of vaccinia virus (Venus reporter). Vaccinia virus Venus reporter expression, fluorescence. Potency, µM (top dose mostly 36.5 µM), for inactives: top-dose activity change, negative = inhibition, hits mostly inhibitors. 330,000 compounds, 0.46% hits. AID 720580; active means well fitted inhibition curve with a large enough effect; inconclusive means small, poorly fitted or top-dose-only effect; inactive means no such curve, though single readings can be large or run the other way; tested in A549 cells; also: nearly all actives have a fitted effect of over 30% in size; inactives centre near -10
# Vaccinia mCherry = inhibitors of vaccinia virus infection (mCherry reporter signal); Vaccinia virus mCherry reporter infection, fluorescence; about a quarter of the inactives have no number; Potency, µM (titrated, usually from 36.5 µM), for the others: at the top dose activity change, negative = inhibition, usual class: inhibitors; 310,000 compounds, 0.63% hits; AID 720579; active = well fitted inhibition curve with a large enough effect; inconclusive = small, poorly fitted or top-dose-only effect; inactive = no such curve, though single readings can be large or run the other way; tested in A549 cells; also: nearly all actives have a fitted effect of over 35% in size; inactives centre near -10
# The depositor's hits bear a star; i = inactive; ? = inconclusive; nt = no result given; [ ] = dose if it differs, or a comment. % is scaled to controls: 0 for no effect and ±100 for the full control effect; potency is read from the fitted curve at half-maximal effect.
no.	smiles	Vaccinia Venus	Vaccinia mCherry
1	Cc1ccccc1OCCC(=O)Nc1ccc2c(C)cc(=O)oc2c1	-7%	-16%
2	COc1ccccc1NC(=S)Nc1cccc2cnccc12	-10%	-16%
3	O=C(OCc1c(F)cccc1Cl)c1cnc2ccccc2n1	-28%	-14%
4	CC1CCN(S(=O)(=O)c2ccc3c(c2)c(=O)c(C(=O)NCc2ccco2)cn3C)CC1	-28%	-10%
5	O=C(Nc1ccc(F)c(F)c1)c1cc(S(=O)(=O)NC2CCCCCC2)ccc1F	?	?
6	O=C(O)c1cc(N/N=C/C=C/c2ccccc2)ccc1Cl	1%	-6%
7	Cc1ccc(C)c(NC(=O)CN2C(=O)CNC2=O)c1	-10%	nt
8	CC(C)[C@H](NC(=O)OCc1ccccc1)C(=O)OCc1ccccc1	-15%	i
9	COc1ccc(C2c3ccc(O)cc3Oc3ncn4nc(-c5ccncc5)nc4c32)cc1OC (stereo not given)	2%	-7%
10	O=C(Cn1nnc2ccccc2c1=O)Nc1ccc(S(=O)(=O)N2CCOCC2)cc1	3%	-1%
11	Cc1cccc(COc2coc(CN3CCN(C(=O)c4ccco4)CC3)cc2=O)c1	-14%	-3%
12	O=C1NC[C@H](CCCCN2CCN(Cc3ccccc3)C(=O)C2=O)N(CCc2ccc(O)cc2)C1=O	13%	1%
13	CCN1CCN(C(=O)CN(c2ccc(C)cc2)S(C)(=O)=O)CC1	-12%	-10%
14	COc1cc2c(cc1OC)CN(C(=O)c1cc(=O)c3ccccc3o1)CC2	?	nt
15	O=C(c1cc(S(=O)(=O)N2CCOCC2)c(Cl)cc1Cl)N1CCN(S(=O)(=O)c2cccc(F)c2)CC1	-22%	-6%
16	C=CCOc1c(Br)cc(CNn2nnnc2N)cc1OC	-22%	nt
17	COc1cc(OC)cc(C(=O)OCC(=O)c2ccc(S(=O)(=O)N3CCCCC3)cc2)c1	-16%	-21%
18	COc1ccc(C(c2nnnn2Cc2cccs2)N2CCN(c3ccccc3)CC2)cc1OC (stereo not given)	-4%	-10%
19	CC(C)C(C(=O)NC1=NCCS1)c1ccc(Cl)cc1 (stereo not given)	4%	1%
20	COc1ccc(C(C(=O)NC2CCCCC2)N(C(=O)c2ccccn2)c2cccnc2)cc1 (stereo not given)	0%	-2%
21	Cc1ccnc(NC(=O)COC(=O)c2ccc(F)cc2F)n1	-11%	0%
22	O=c1c2ccccc2nc2n1CCCN2	4%	0%
23	Nc1ccccc1Sc1cc(Cl)nnc1Cl	-22%	-6%
24	O=C(NCCN1C(=O)S/C(=C\c2ccc(Cl)c([N+](=O)[O-])c2)C1=O)C1=COCCO1	-10%	-2%
25	CCn1nc(/C=C/c2ccccc2)nc2c(=O)n(C)c(=O)nc1-2	2.8µM*	2.5µM*
26	COc1ccccc1/C=C/C(=O)OCC(=O)NC1CCCCCCC1	-6%	-14%
27	CCn1c(=O)cc(SCC(=O)NCCC2=CCCCC2)c2ccccc21	-8%	-28%
28	O=[As](O)(O)c1ccc(N=Nc2ccc(O)cc2)cc1	-9%	i
29	COc1nccnc1NS(=O)(=O)c1ccc(NC(=S)NC(=O)c2cccc(F)c2)cc1	-14%	-19%
30	COc1cccc(-c2nnc(SCC(=O)OC(C)C)n2Cc2ccco2)c1	-15%	i
31	Cc1cc(F)ccc1NC1(c2ccccc2)C(=O)c2ccccc2C1=O	-3%	2%
32	Cc1ccc(C)c(NC(=O)Cn2ncc3c([nH]c4ccccc43)c2=O)c1	-2%	2%
33	CCOC(=O)N1CCN(C(=O)c2cc3c(=O)n4cccc(C)c4nc3s2)CC1	2%	-11%
34	O=C(O)CCCC(=O)Nc1ccn(-c2ccccc2)n1	-9%	-18%
35	Cc1ccc(S(=O)(=O)N2C[C@H]3C(=O)C[C@@H](c4cccc(Cl)c4)N(S(=O)(=O)c4ccc(C)cc4)[C@H]3C[C@H]2c2ccccc2)cc1	-11%	i
36	COc1ccccc1-n1c(SC)nc(O)cc1=O	-8%	-14%
37	CN(C)c1ccc(CNC(=O)C2CCN(S(=O)(=O)c3ccc4c(ccn4C)c3)CC2)cc1	0%	-15%
38	COc1ccc(N2CCN(Cc3nc(Cc4cccc(F)c4)no3)C(C)C2)cc1 (stereo not given)	-18%	-26%
39	CC(C)(C)C1CCc2c(C(=O)NNC(=O)/C=C/C(=O)O)csc2C1 (stereo not given)	-11%	-8%
40	CC(C)n1nnnc1SCC(=O)N1CCOCC1	1%	-14%
41	C/C=C/C=C/C(=O)[C@@H]1[C@@H]([C@]2(C)OC(=O)C(C)=C2O)[C@H]2/C(=C(O)/C=C/C=C/C)C(=O)[C@]1(C)C(=O)C2(C)O (stereo not given in full)	7%	3%
42	Cn1cnnc1SCC(=O)Nc1cccc(S(=O)(=O)N2CCCCCC2)c1	-11%	-14%
43	COc1cc(/C=N/NC(=O)c2cccc(S(=O)(=O)N3CCOCC3)c2)cc(OC)c1O	-8%	-14%
44	Cc1cc(C(=O)OC(C)C(=O)NC2CCCCC2)c(C)o1 (stereo not given)	-13%	i
45	O=C(CN1CCOCC1)Nc1nc(-c2ccc3c(c2)CCN3S(=O)(=O)c2ccccc2)cs1	-19%	?
46	CCC(=O)Nc1ccc(-n2nnnc2SCC(=O)NNC(=O)c2ccco2)cc1	-10%	-10%
47	COc1ccc2c(c1)C1(Nc3ccccc3C(=O)N1c1ccccc1)C(=O)N2 (stereo not given)	-3%	-6%
48	Cc1cccc2cc(CNC3CCCC3)c(Cl)nc12	-4%	i
49	CS(=O)(=O)n1c2ccccc2c(=O)n1-c1ccccc1CCl	5%	-4%
50	O=C(NCCCc1ccccc1)c1cccc(NC(=O)C2CCCC2)c1	-26%	-25%
51	COC(=O)c1sccc1NC(=O)/C=C/c1ccc(Cl)cc1Cl	1%	2%
52	Cc1nc2ccc(S(=O)(=O)NCC(=O)N3CCN(c4ccccc4)CC3)cc2s1	-17%	-24%
53	CCCCN(CCCC)CCNC(=O)Cn1nc(CC)n2c(cc3sccc32)c1=O	-13%	-19%
54	NC(=O)C1CCN(C(=O)CN(c2ccc3c(c2)OCCO3)S(=O)(=O)c2ccccc2)CC1	-4%	i
55	CCn1c(SCc2nc3cc(OC)c(OC)cc3c(=O)[nH]2)nc2ccccc21	-13%	i
56	CC(C)N1CCCC(C)(C(=O)Nc2ccccc2)C1 (stereo not given)	8%	-5%
57	CC(C)(C)N(NC(=O)c1ccccc1)C(=O)c1ccccc1	-4%	i
58	COc1cc2c(cc1OC)C(COc1ccc3c(C)cc(=O)oc3c1)N(C(=O)c1cccc(OC)c1OC)CC2 (stereo not given)	-9%	-11%
59	N#Cc1ccccc1Cn1cnc2nc3c(cc2c1=O)CCCC3	-16%	-14%[7.34 µM]
60	O=C(O)c1cccc(S(=O)(=O)N2CCSCC2)c1	?	i

# The last two entries of the section before lead into the next:
no.	smiles	Vaccinia Venus	Vaccinia mCherry
59	N#Cc1ccccc1Cn1cnc2nc3c(cc2c1=O)CCCC3	-16%	-14%[7.34 µM]
60	O=C(O)c1cccc(S(=O)(=O)N2CCSCC2)c1	?	i
61	CCCCc1ccc(-n2nc3cc(Cl)c(NC(=O)c4ccc(OC)cc4)cc3n2)cc1	-2%	i
62	Cc1ccc(S(=O)(=O)CCC(=O)NCCN2C(=O)S/C(=C\c3ccccc3)C2=O)cc1	-19%	-3%
63	O=C(c1cccc(-c2ccco2)c1)N1CCCC(N2CCN(c3ccc(F)cc3)CC2)C1 (stereo not given)	-17%	-6%
64	Cc1ccc(-n2ncc(N(C)C)c(Cl)c2=O)cc1	0%	i
65	O=[N+]([O-])c1ccc(S(=O)(=O)Nc2ccc(S(=O)(=O)N3CCCC3)cc2)cc1	-5%	-13%
66	Cc1ccc(NC(=O)Cn2c(-c3ccc(F)cc3)cnc2SCC(=O)Nc2c(C)cccc2C)cc1	-3%	1%
67	O=C1c2sc3nc4c(c(=O)n3c2C(=O)N1c1ccccc1)CCC4	-6%	nt
68	COC(=O)CCN(C(=O)c1ccc([N+](=O)[O-])cc1)c1ccccn1	2%	-11%
69	O=C(NCCc1ccccc1)c1c[nH]c2ccc(S(=O)(=O)Nc3ccc(F)cc3F)cc2c1=O	4%	-13%
70	CC(CN1C(C)CCCC1C)OC(=O)c1ccc(Cl)cc1Cl (stereo not given)	15%	13%
71	CN(C)CCCN(C(=O)c1cccs1)c1nc2cc3c(cc2s1)OCO3	-7%	-11%
72	CCOc1ccccc1C(=O)Nc1ccc(S(=O)(=O)Nc2onc(C)c2C)cc1	-6%	-11%
73	CC(=O)Nc1ccc2nc(CN3CCC(CO)(CCc4ccccc4)CC3)ccc2c1	-5%	-23%
74	Cc1ccc(NC(=O)c2cc(-c3cccs3)nc3ccccc23)nc1	-1%	3%
75	Cc1ccc(NS(=O)(=O)c2cc(C(=O)N3CCCC3)ccc2C)cc1C	-16%	-9%
76	O=C(NCC(c1ccco1)N1CCc2ccccc21)c1cccc([N+](=O)[O-])c1 (stereo not given)	-16%	?
77	N#Cc1ccccc1-c1ccc2ncnc(N3CCNCC3)c2c1	0%	i
78	COCCCNCC(=O)c1c(N)n(Cc2ccccc2)c(=O)n(C)c1=O	-9%	-13%
79	COc1ccc(/C=C(\C#N)c2nc(-c3ccc(Cl)c(Cl)c3)cs2)cc1OC	1%	-9%
80	CSc1ccccc1OCc1cc(C(=O)N2CCNC(=O)C2)no1	-5%	i
81	COc1ccc2c(COC(=O)c3cccc(S(=O)(=O)NCC(C)C)c3)cc(=O)oc2c1	-20%	-3%
82	CC(C)CN(C(=O)COC(=O)c1c2c(nc3ccccc13)CCC2)c1c(N)n(Cc2ccccc2)c(=O)[nH]c1=O	-24%	-28%
83	CCC1CCc2sc(C(=O)N(C)CC(=O)Nc3ccc(OC)cc3)cc2C1 (stereo not given)	-10%	-17%
84	Cc1ccc(NC(=O)CSc2nc(-c3cccs3)cc(C(F)(F)F)n2)cc1C	-22%	-26%
85	OCCNCCCCCOc1ccc(F)cc1	2%	-10%
86	CCn1cc2nc(SCc3ccccc3Cl)n(CCc3ccccc3)c(=O)c2n1	?	?
87	Clc1ccc(-c2nc3c4ccccc4ccn3c2Cc2cccc(Cl)c2)cc1	-3%	-5%
88	COC(=O)C(Cc1ccccc1)NC(=O)CNS(=O)(=O)c1ccc(Br)cc1 (stereo not given)	-3%	-2%
89	COc1cccc(NC(=O)COC(=O)c2c(F)cccc2F)c1	-16%	i
90	COc1cc(CNCCCN2CCOCC2)ccc1OCC(=O)Nc1cccc(C(F)(F)F)c1	-13%	i
91	CCN1C(=O)c2cccc3c(S(=O)(=O)N4CCC(C)CC4)ccc1c23	-12%	-26%
92	Cc1cccc(NC(=O)CCN2C(=O)C3C4CCC(C4)C3C2=O)c1C (stereo not given)	-24%	-10%
93	Cc1ccc(S(=O)(=O)NCCCC(=O)C=[N+]=[N-])cc1	-5%	-2%
94	COc1ccc(CN(CCC(c2ccc(F)cc2)C2CCOC(C)(C)C2)C(=O)c2ccco2)cc1 (stereo not given)	-14%	-15%
95	CCOC(=O)C1CCN(C(=O)c2cnn(-c3ccc(F)cc3)c2-n2cccc2)CC1	8%	8%
96	CS(=O)(=O)N(CC(=O)NCc1cccnc1)Cc1ccc(Cl)cc1	-6%	-14%
97	Cc1nn(C)c(-c2n[nH]c(=S)n2Cc2ccco2)c1Cl	-5%	i
98	COc1ccc(C(=O)NCCNc2nc3cc(C)c(C)cc3cc2C)cc1	-15%	i
99	O=C(c1ccc(Cl)cc1)N1CCC(=O)N(C(CO)Cc2ccccc2)CC1 (stereo not given)	-6%	-13%
100	C=C1C=C(C)n2ncc(C(=O)NCCCCCC)c2N1	-20%	-5%
101	COc1ccc(-c2noc(CNC(=O)c3ccc4c(c3)OCO4)n2)cc1OC	-9%	-10%
102	O=C(Cc1ccccc1)Nc1nnc2n1CCS2	9%	1%
103	CSc1nnc(C(C)(C)C)c(=O)n1/N=C/c1ccccc1O	-9%	0%
104	CC[C@@]12C(=O)N(c3cccc(Br)c3)C(=O)N1[C@H](c1cccc(C)c1)[C@@H]1C(=O)N(Cc3ccccc3)C(=O)[C@@H]12	-27%	-3%
105	C/C(=N\NC(=O)C1CCCC1)c1ccc(C(C)C)cc1	-16%	i
106	Cc1ccc(OCCOCCn2ccnc2)c(Br)c1	-20%	nt
107	O=C(COc1ccc(Cl)cc1Cl)NCCN1CCCCC1	-5%	?
108	O=c1oc2cc(Oc3ccc(C(F)(F)F)cc3[N+](=O)[O-])ccc2c2c1CCC2	-11%	-14%
109	Cc1noc(C)c1COc1ccc(C(=O)OCC(=O)NCc2ccccc2Cl)cc1	-19%	-26%
110	Cc1cccc(CNc2ccc(C(CC(N)=O)NC(=O)Cc3cccc4ccccc34)cc2[N+](=O)[O-])c1 (stereo not given)	-13%	-8%
111	Cc1cc(C)c2nc(N3CCC(C(=O)N4CCN(c5ncccn5)CC4)CC3)sc2c1	19%	i
112	CC1=C(C(=O)N2CCCC(N3CCN(c4ccccc4F)CC3)C2)OCCO1 (stereo not given)	-8%	-13%
113	O=S(=O)(NCc1ccccc1)c1ccc(Br)c2nsnc12	-3%	6%

# Filtered by structure, the entries above with a tert-butyl group.
no.	smiles	Vaccinia Venus	Vaccinia mCherry
39	CC(C)(C)C1CCc2c(C(=O)NNC(=O)/C=C/C(=O)O)csc2C1 (stereo not given)	-11%	-8%
57	CC(C)(C)N(NC(=O)c1ccccc1)C(=O)c1ccccc1	-4%	i
103	CSc1nnc(C(C)(C)C)c(=O)n1/N=C/c1ccccc1O	-9%	0%

# Screening results (PubChem BioAssay)
